Screening data from PubChem BioAssay.
VDR inh: blocks the human vitamin D receptor; P11473; VDR-SRC2-3 peptide fluorescence polarization, 2 h; Potency, µM, for inactives: max response, negative = inhibition, actives largely listed as inhibitors; actives 0.93% (n = 400,000); AID 504847; active = well fitted inhibition curve with a large enough effect; inconclusive = small, poorly fitted or top-dose-only effect, or another doubt; inactive = no such curve, though single readings can be large or run the other way; also: series mostly up to about 120 µM
Target sequence (P11473 whole entry, looked up): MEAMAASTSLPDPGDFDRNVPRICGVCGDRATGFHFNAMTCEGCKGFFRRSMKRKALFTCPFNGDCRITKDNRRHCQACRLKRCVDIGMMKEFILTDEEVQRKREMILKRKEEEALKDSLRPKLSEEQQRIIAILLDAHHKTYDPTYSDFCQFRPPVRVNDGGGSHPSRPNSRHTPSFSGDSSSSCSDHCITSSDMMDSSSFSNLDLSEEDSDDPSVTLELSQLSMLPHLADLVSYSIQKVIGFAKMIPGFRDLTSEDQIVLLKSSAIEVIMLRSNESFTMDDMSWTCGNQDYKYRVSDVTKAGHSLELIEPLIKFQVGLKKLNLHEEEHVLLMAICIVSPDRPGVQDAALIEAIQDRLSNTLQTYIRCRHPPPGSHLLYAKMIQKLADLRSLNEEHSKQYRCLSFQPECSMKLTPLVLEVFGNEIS
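Signal is fluorescence polarization, reporting how far test compounds block the interaction of VDR with the SRC2-3 coregulator peptide after a 2 h room-temperature incubation.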
Numbers without * were called inactive; ? = inconclusive; & = joins results of further samples. % is scaled to controls: 0 for no effect and ±100 for the full control effect; potency is read from the fitted curve at half-maximal effect. A portion of the library; rates above refer to the full screens.

SMILES	VDR inh
O=C1N=C(N2C=CC(=C3C=CNC=C3)C=C2)/C(=C/N=NC(=O)c2ccccc2)S1	4%
O=C(COc1ccccc1)c1cn(CC(=O)N2CCOCC2)c2ccccc12	16%
CCCOc1ccc(C(=O)Nc2ccc(Cl)cn2)cc1	8%
COc1ccc(NC(=O)CN2CCN(c3ccccc3)CC2)cc1	4%
CCCOc1ccc(NC2=CC(=O)CC(C)(C)C2)cc1	10%
CCC(C)C(=O)Nc1cc(OC)c(OC)cc1C(=O)O (stereo not drawn)	12%
O=C(Nc1cc(Cl)cc(Cl)c1)c1ccc(F)c(S(=O)(=O)N2CCc3ccccc32)c1	-5%
Cc1ccnc(NC(=O)c2cccc(NC(=O)CC3SC(N4CCCCC4)=NC3=O)c2)c1 (stereo not drawn)	-9%
COc1ccc(S(=O)(=O)Cc2ccc(C(=O)O)o2)cc1	20%
COc1ccc(Cl)cc1NC(=O)C(C)OC(=O)Cn1cc(C(F)(F)F)ccc1=O (stereo not drawn)	5%
CCc1nnc(NS(=O)(=O)c2ccc(N3C(=O)c4ccccc4C3=O)cc2)s1	-7%
CC(C)N(C(=O)CSc1nnc(CN2CCCCCC2=O)n1-c1ccccn1)C(C)C	-1%
C=CCN(CC=C)C(=O)C(=O)c1cc(C)n(-c2ccc([N+](=O)[O-])cc2)c1C	-11%
[O-][n+]1onc2c1CCc1nnccc1-2	5%
O=C(O)CCn1c(=O)n(CCC(=O)O)c(=O)n(CCC(=O)O)c1=O	-6%
C=CC[C@]12C=C(OC)C(=O)C=C1O[C@@H](c1ccc3c(c1)OCO3)[C@H]2C	-6%
Cc1cccc(NS(=O)(=O)c2ccc(C(=O)N3CC(C)OC(C)C3)cc2)c1C (stereo not drawn)	-11%
O=C(CCCn1c(=O)oc2ccccc21)Nc1cccnc1	-9%
COc1cccc(C2=CC(=O)C[C@H](c3ccc(Cl)cc3)C2)c1	-11%
CS(=O)(=O)Oc1ccc2c(c1)O/C(=C\c1cccc([N+](=O)[O-])c1)C2=O	-8%
CCOC(=O)N1CCC2(CC1)CC(=O)c1c(ccc3oc(C(=O)O)c(C)c13)O2	9%
CC[C@H]1C/C=C\Cc2ccccc2[C@@H](C(=O)C[C@@H](O)CC(C)=O)OC1=O	-10%
COCCOC1CCN(C(=O)c2ccc(OC)c(OC3CCN(C(C)C)CC3)c2)CC1	-28%
COc1ccc(C)cc1NC(=O)CN(c1cc(C(F)(F)F)ccc1Cl)S(C)(=O)=O	-27%
COc1ccc(OC)c(C=Nc2ccccc2-c2nc3ccccc3[nH]2)c1	-22%
CC1(NC(=O)Nc2cc([N+](=O)[O-])ccc2O)CCS(=O)(=O)C1 (stereo not drawn)	4%
COC(=O)c1oc2ccc(Br)cc2c1NC(=O)c1ccccc1	6%
CCCNS(=O)(=O)c1ccc(Oc2ncc(C(F)(F)F)cc2Cl)cc1	-2%
O=C(NCc1cccnc1)c1cccc(NS(=O)(=O)c2ccc(Br)cc2)c1	20%
COC(=O)c1ccccc1NC(=O)CSc1ccccn1	1%
N#CCC(=O)N/N=C1\CCCCC1C1CCCCC1 (stereo not drawn)	1%
COc1ccc(C(CC(=O)NCc2ccco2)c2ccc(F)cc2)cc1 (stereo not drawn)	12%
CCc1ccc(-c2cc(C)no2)cc1S(=O)(=O)N1CCOc2ccc(C)cc21	-8%
COc1ccc(N(CC(=O)NCCSCc2cccc(Cl)c2)S(C)(=O)=O)cc1Cl	0%
CC(C)NC(=O)N1CCC(c2nc3ccccc3s2)CC1	0%
COc1cc(NC(=O)COC(=O)/C=C/c2c(C)nn(-c3ccc(F)cc3)c2Cl)cc(OC)c1	-12%
O=C(NCC1CCCCC1)c1cc(S(=O)(=O)N2CCCCC2)ccc1Cl	-5%
C=CCn1cccc(C(=O)Nc2ccc(OC)c(OC)c2)c1=O	-12%
Cc1c(CC(=O)NCCCC(=O)O)c(=O)oc2cc3occ(-c4ccccc4)c3cc12	-12%
CC1CCN(C(=O)CN2c3cccc4cccc(c34)S2(=O)=O)CC1	16%
CCOC(=O)C1CCCN(c2ccc(NC(=O)c3snc4c(=O)[nH]c(C)nc34)cc2)C1 (stereo not drawn)	-1%
Cc1ncoc1C(=O)N1CCCC(CCC(=O)NCc2ccccc2F)C1 (stereo not drawn)	-6%
O=[N+]([O-])c1ccc(Oc2ccc(F)cc2Br)c2ccncc12	-11%
CC(C)OC(=O)CSc1nc2cccnc2n1-c1ccc(F)cc1	14%
COc1ccc(OCC(=O)OCCNC(=O)c2cccnc2)cc1	4%
COc1ccc2c(c1)C(=O)N(c1ccccc1C)C(=O)C2(C)C	8%
O=C1/C(=C/c2ccccc2)SC(=S)N1C1CCS(=O)(=O)C1 (stereo not drawn)	-19%
COc1cc2c(cc1NC(=O)COc1cc(C)ccc1C)oc1ccccc12	14%
Cc1ccc(-n2c(SCC(=O)O)nc3sc4c(c3c2=O)C(C)CCC4)cc1 (stereo not drawn)	11%
COc1ccc(N2C(=O)c3ccccc3S2(=O)=O)cc1	-11%
COc1ccccc1N(C)S(=O)(=O)c1ccc(C(=O)NCC2CCCCC2)cc1	8%
COc1ccccc1-c1nc2cc(NC(=O)c3ccccc3Cl)ccc2o1	-15%
CCOC(=O)C1=C(CSc2nc3c(cc2C#N)CN(C)CC3)OC(N)=C(C#N)C1c1ccc(Cl)cc1 (stereo not drawn)	7%
Cc1ccc(NC(=O)N2CC=C(c3c[nH]c4ccccc34)CC2)cc1Cl	18%
Cc1ccc(-n2ncc(C(=O)NCC3CCN(C4CCCC4)C3)c2C2CCN(C(=O)OC(C)(C)C)CC2)cc1 (stereo not drawn)	-13%
CN(CC(=O)Nc1ccc(F)cc1)C(=O)COC(=O)CNC(=O)c1ccc(Cl)cc1Cl	-2%
CCOc1ccc(CNC(=O)c2ccc(-c3nc(CSc4ccc(C)cc4)c(C)o3)cc2)cc1	8%
C=C1CCN([C@@H](C)C(=O)NCc2ccc(Cl)cc2)S(=O)(=O)c2ccccc21	-11%
CCC(C)NC(=O)CCCCCn1c(=O)[nH]c2cc(OC)c(OC)cc2c1=O (stereo not drawn)	-15%
CCOC(=O)c1c(C)[nH]c(C)c1C(=O)CSc1ncccn1	1%

Sorted by length of the SMILES (low to high): some entries from above
SMILES	VDR inh
CCOC(=O)c1c(C)[nH]c(C)c1C(=O)CSc1ncccn1	1%
Cc1ncoc1C(=O)N1CCCC(CCC(=O)NCc2ccccc2F)C1 (stereo not drawn)	-6%
CN(CC(=O)Nc1ccc(F)cc1)C(=O)COC(=O)CNC(=O)c1ccc(Cl)cc1Cl	-2%

More structures:
SMILES	VDR inh
NS(=O)(=O)c1ccc(CNS(=O)(=O)c2cccc3nonc23)cc1	8%
COC(=O)c1sc(=S)n(-c2ccc(Cl)cc2)c1C	3%
O=C(NNC(=O)c1ccc2c(c1)OCO2)NC1CCCCC1	0%
COc1cc(-c2ccc3c(=O)c4ccccc4sc3c2)cc(OC)c1OC	-18%
CC(C)CN(C(=O)c1ccc(N2CCCC2=O)cc1)C1CCS(=O)(=O)C1 (stereo not drawn)	1%
CCCC1(C(=O)OCC)NC(c2ccc(N(C)C)cc2)C2C(=O)N(c3ccc4c(c3)OCCO4)C(=O)C21 (stereo not drawn)	9%
Oc1c(Br)cc(Br)cc1CNc1cccc2cccnc12	-22%
O=C(CSc1ncnc2ccccc12)c1ccc2c(c1)OCCO2	-18%
COc1ccc(CC(NC(C)=O)C(=O)NC2CCN(S(=O)(=O)c3ccc(NC(C)=O)cc3)CC2)cc1OC (stereo not drawn)	12%
C=CCOC(=O)C1=C(C)NC(=O)NC1c1ccc(Cl)cc1 (stereo not drawn)	6%
CCS(=O)(=O)Nc1ccc2c(c1)N(C(C)=O)c1ccccc1CC2	-3%
O=C(O)c1ccc(Cl)c(S(=O)(=O)Nc2cccc(C(=O)Nc3cccc(C(F)(F)F)c3)c2)c1	-7%
Cc1ccc(C2NC(c3ccc4c(c3)OCO4)=CC(c3cc(Br)ccc3O)N2)cc1 (stereo not drawn)	?
O=C(c1cc(COc2cccc3cnccc23)on1)N1CCC(c2ccccc2Cl)C1 (stereo not drawn)	-21%
COc1ccc(CNc2nc3nc(-c4ccccc4)cc(=O)n3[nH]2)cc1OC	-16%
CCOC(=O)CN=C/C(C(=O)Nc1nccs1)=C(/C)O	19%
COc1ccccc1C(=O)NCC(c1cccnc1)N1CCc2ccccc2C1 (stereo not drawn)	17%
FC(F)(F)c1nnc(-c2ccccc2)nc1Sc1ccccc1	-17%
CCN1CCN(c2oc(-c3ccccc3)nc2S(=O)(=O)c2ccc(C)cc2)CC1	-11%
Cc1nnc(N/N=C/c2ccc(O)c([N+](=O)[O-])c2)[nH]c1=O	-11%
COc1cccc(/C=C/C(=O)Nc2ccc3nc4n(c(=O)c3c2)CCCC4)c1OC	19%
CCOC(=O)c1sc(NC(=O)CSc2nc(-c3ccco3)cc(C(F)(F)F)n2)c(C#N)c1C	1%
Cc1c(Cc2ccccc2)sc(NC(=O)Cc2ccccc2)c1C(N)=O	?
NS(=O)(=O)c1cc2c(cc1Cl)N[C@@H](CC1CCCC1)NS2(=O)=O	-5%
N#Cc1nc(-c2ccccc2Cl)oc1N1CCN(C(=O)c2ccco2)CC1	1%
CCOc1ccc(CCNC(=O)Nc2ccccc2)cc1OCC	2%
CNCc1c(OCc2ccccc2F)ccc2ccccc12	23%
NC(=O)Cn1c(S(=O)(=O)Cc2ccccc2)nc2ccccc21	8%
COc1ccccc1N1CCN(C(=O)c2nn(-c3ccc(C)cc3)c(=O)n(C)c2=O)CC1	11%
Cc1oc(-c2ccccc2)nc1C(=O)OCC(=O)NC(=O)NCC(C)C	-21%
O=C(Nc1cccc(F)c1)c1ccc(CSc2ccccc2)o1	-8%
Cc1ccc(CSc2nnc(C)c(=O)[nH]2)cc1	-25%
CCOC(=O)C1CCN(C(=O)COC(=O)c2c(C)c(CC)nc3ccccc23)CC1	-8%
CCSc1nnc(NC(=O)C2CC=CCC2C(=O)O)s1 (stereo not drawn)	10%
Cc1ccc2c(c1)N(C(=O)CCC(=O)N1CCC(C(N)=O)CC1)CCO2	-2%
O=C(O)C[C@H]1c2ccccc2S(=O)(=O)N1C1CCCC1	4%
O=C(c1cccc(F)c1)N(Cc1nc2ccccc2c(=O)[nH]1)C1CCCC1	-25%
CC(=O)c1csc(Nc2ccccc2Cl)n1	9%
Cc1ccc(CN2CCC(CO)(CC3CCCCO3)CC2)o1 (stereo not drawn)	21%
COc1ccc(-c2nc(CS(=O)(=O)CC(=O)Nc3ccc(Cl)cc3)c(C)o2)cc1	7%

Some of the entries so far, in CSV form:
SMILES,VDR inh
COc1cccc(/C=C/C(=O)Nc2ccc3nc4n(c(=O)c3c2)CCCC4)c1OC,19%
CCOC(=O)c1sc(NC(=O)CSc2nc(-c3ccco3)cc(C(F)(F)F)n2)c(C#N)c1C,1%
Cc1c(Cc2ccccc2)sc(NC(=O)Cc2ccccc2)c1C(N)=O,?
NS(=O)(=O)c1cc2c(cc1Cl)N[C@@H](CC1CCCC1)NS2(=O)=O,-5%
N#Cc1nc(-c2ccccc2Cl)oc1N1CCN(C(=O)c2ccco2)CC1,1%
CCOc1ccc(CCNC(=O)Nc2ccccc2)cc1OCC,2%
CNCc1c(OCc2ccccc2F)ccc2ccccc12,23%
NC(=O)Cn1c(S(=O)(=O)Cc2ccccc2)nc2ccccc21,8%
COc1ccccc1N1CCN(C(=O)c2nn(-c3ccc(C)cc3)c(=O)n(C)c2=O)CC1,11%
Cc1oc(-c2ccccc2)nc1C(=O)OCC(=O)NC(=O)NCC(C)C,-21%
O=C(Nc1cccc(F)c1)c1ccc(CSc2ccccc2)o1,-8%
Cc1ccc(CSc2nnc(C)c(=O)[nH]2)cc1,-25%
CCOC(=O)C1CCN(C(=O)COC(=O)c2c(C)c(CC)nc3ccccc23)CC1,-8%
CCSc1nnc(NC(=O)C2CC=CCC2C(=O)O)s1 (stereo not drawn),10%
Cc1ccc2c(c1)N(C(=O)CCC(=O)N1CCC(C(N)=O)CC1)CCO2,-2%
O=C(O)C[C@H]1c2ccccc2S(=O)(=O)N1C1CCCC1,4%

(more compounds)
SMILES	VDR inh
O=C1CC(N2CCC(C(=O)N3CCCCC3)CC2)C(=O)N1 (stereo not drawn)	7%
CCNc1ccc(S(=O)(=O)N(C)C)cc1NCC(=O)Nc1ccccc1F	15%
Cc1ccc(S(=O)(=O)N2CCN(C(=O)c3cc(S(=O)(=O)N(C)C)ccc3N3CCCC3)CC2)cc1	-5%
CN(Cc1ccccc1)C(=O)COC(=O)c1cc(=O)c2ccccc2o1	-12%
CCCCn1c(N)c(N(CC(C)C)C(=O)CSCc2c(C)noc2C)c(=O)[nH]c1=O	5%
COc1cc(NC(=O)CN2C(=O)NC3(CCOc4ccccc43)C2=O)cc(OC)c1 (stereo not drawn)	21%
CCOCCCNCc1ccc(OC)cc1	16%
O=S(=O)(c1ccc(Cl)cc1)N1CCN(Cc2ccncc2)CC1	4%
CC(C)(C)OC(=O)N[C@@H](Cc1ccccc1)C(=O)N1CCC(C(=O)N[C@@H](CCC(N)=O)C(=O)O)CC1	-8%
Cc1cccc(OCCn2c(-c3ccc(Cl)cc3)nc3ccccc3c2=O)c1	-7%
O=C(O)c1cnc(-c2ccccc2)nc1Oc1ccccc1	3%
NNC(=O)CS(=O)(=O)c1ccc(Cl)cc1	13%
CN(C)C(=O)c1ccc(-c2nccc(NCc3cccnc3)n2)cc1	6%
CC(=O)Nc1c(C(=O)N2CCN(c3ccccn3)CC2)cnn1-c1ccc(C)cc1	2%
CCCN(CC1CC1)c1nc(C)nc(Nc2c(Cl)cc(Cl)cc2Cl)c1Cl	0%&-26%
CC(C)[C@H](CO)Nc1nc(Nc2ccc(Cl)c(C(=O)O)c2)c2ncn(C(C)C)c2n1	-3%
COc1cccc(/C=N\NC(=O)c2sc(N)nc2C)c1OC	-7%
CCC(C)(c1nnnn1-c1c(C)cccc1C)N(N=O)c1ccccc1Cl (stereo not drawn)	-4%
COc1ccc(NC(=O)CN(c2ccc(C)cc2)S(C)(=O)=O)c(OC)c1	9%
CCN(CC)CCCNC(=O)c1nn(-c2ccccc2OC)c(=O)c2ccccc12	-6%
